Screening data from PubChem.
Polio RdRp inh = inhibitors of poliovirus RNA polymerase binding and polymerization | 0.66% of 150,000 active | poliovirus polymerase elongation, fluorescence polarization; hits give low values | P03300 | AID 588519 | % elongation, % (compound at 16.7 µg/mL); in the data active = % elongation below about 90%; also: some results filed as inactive read as strong as hits
Mtb MbtI inh = inhibitors of Mycobacterium tuberculosis siderophore enzyme MbtI; purified MbtI enzyme, fluorescence intensity read-out; P9WFX0; 0.89% of 100,000 active; inhibition, %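 (about 17 µg/mL by stock and volumes)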; AID 493033;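 active = above 50% in both replicates, above 80% if mildly self-fluorescent; inactive = the rest, strongly fluorescent compounds included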;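 also: 0% = mean of negative and 100% = mean of positive controls; one replicate is shown; some compounds called inactive have numbers as strong as hits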
Target sequence (P9WFX0 whole entry, looked up): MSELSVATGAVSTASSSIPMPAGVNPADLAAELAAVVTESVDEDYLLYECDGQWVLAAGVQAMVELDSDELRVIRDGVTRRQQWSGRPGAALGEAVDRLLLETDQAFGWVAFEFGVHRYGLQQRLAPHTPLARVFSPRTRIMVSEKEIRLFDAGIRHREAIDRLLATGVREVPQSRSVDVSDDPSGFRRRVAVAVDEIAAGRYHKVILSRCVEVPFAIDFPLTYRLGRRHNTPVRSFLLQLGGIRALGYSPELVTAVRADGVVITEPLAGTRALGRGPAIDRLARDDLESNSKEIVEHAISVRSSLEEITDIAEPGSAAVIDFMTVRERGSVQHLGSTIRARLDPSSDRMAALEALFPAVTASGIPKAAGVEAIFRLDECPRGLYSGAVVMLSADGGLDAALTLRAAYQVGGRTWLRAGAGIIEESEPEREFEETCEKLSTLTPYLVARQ
MenB inh = inhibitors of Mycobacterium tuberculosis MenB enzyme | MenB enzyme assay, absorbance read-out; some hits fall short of the stated cut | 0.43% of 100,000 active | AID 540299 | P9WNP5 | inhibition, %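 (about 12 µg/mL by stock and volumes)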;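 active = mean of two replicates above 30%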;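 also: 0% = no compound and 100% = wells with inactive enzyme; the first replicate is given; strong numbers were not always called active; inactives centre near -10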
Target sequence (P9WNP5 whole entry, looked up): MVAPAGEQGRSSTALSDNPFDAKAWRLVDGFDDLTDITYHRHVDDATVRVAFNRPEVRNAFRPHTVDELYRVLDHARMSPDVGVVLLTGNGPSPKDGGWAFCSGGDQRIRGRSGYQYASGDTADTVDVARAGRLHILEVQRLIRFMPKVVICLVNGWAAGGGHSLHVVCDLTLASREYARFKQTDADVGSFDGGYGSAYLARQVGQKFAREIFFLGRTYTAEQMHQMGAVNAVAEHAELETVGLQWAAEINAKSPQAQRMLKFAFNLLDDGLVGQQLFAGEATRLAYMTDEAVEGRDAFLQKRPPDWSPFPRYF
Polio RdRp inh intensity = also measured in Polio RdRp inh; calls as there; % elongation; measured here: total intensity read-out; formula for this scale not given here;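 total fluorescence in place of polarization; lower means less elongation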
Active calls of the source: *; i = inactive; . = not tested or not shown. Compounds were not picked by outcome; 1.7% or so of the library scored in one or more.

entry	compound	Polio RdRp inh	Polio RdRp inh intensity	Mtb MbtI inh	MenB inh
1	O=C(CN1C(=O)C2C3C=CC(C3)C2C1=O)Nc1ccccc1 (configuration not stated)	104	102	-1	-24
2	Cc1ccccc1-n1c(=O)c2ccccc2n2cnnc12	103	105	-10	-10
3	CN1CCC(N(C)C(=S)NC2CCCCC2)CC1	100	101	-2	-12
4	O=C(O)COc1ccc(C(=O)NCc2ccccc2)cc1	102	102	-11	-22
5	O=C(CSc1nc2c(cnn2-c2ccc(Cl)cc2)c(=O)[nH]1)Nc1ccc(F)cc1	103	102	-5	-15
6	Cc1noc2ncnc(N3CCCC3CO)c12 (configuration not stated)	105	103	-5	-19
7	Cc1sc2nc(SCC(=O)N3CCCCC3)[nH]c(=O)c2c1C	100	100	18	-22
8	Cc1cccc(-n2ncc3c(N4CCCC4)ncnc32)c1	104	103	-3	-11
9	O=C(O)c1ccc(CSc2n[nH]c(-c3ccco3)n2)cc1	97	103	32	14
10	Cc1ccc(NC(=O)c2ccc(Br)o2)cc1	103	106	-4	.
11	NS(=O)(=O)c1ccc(NC(=O)C2CC=CCC2C(=O)N2CCOCC2)cc1 (configuration not stated)	101	100	-3	8
12	COC(=O)c1ccccc1NC(=O)Cc1noc2ccccc12	102	102	11	-44
13	O=C1COc2ccc(Cl)cc2N1Cc1cc2c(cc1Cl)OCO2	101	101	-2	13
14	CCOC(=O)C1CCN(C(=O)CNC(=O)Cn2c(C)cc3ccccc3c2=O)CC1	100	102	8	-39
15	COC(=O)c1scc(C#N)c1N=CN(C)C	107	116	-17	3
16	O=C(CSc1nc2ccccc2o1)NCC1CCCCC1	105	107	-14	.
17	O=S(=O)(c1cc(OCC(F)(F)F)ccc1OCC(F)(F)F)n1cccc1	106	104	0	-17
18	O=S(=O)(c1ccc(NC2CCN(Cc3ccccc3)CC2)nc1)N1CCCCC1	104	112	-12	-3
19	Nc1cccc(-n2cccc2)c1	100	117	9	11
20	O=C(OCn1nnc2ccccc2c1=O)C12CC3CC(CC(C3)C1)C2	99	96	-1	-28
21	FC(F)(F)c1ccccc1Nc1nc(-c2cccnc2)cs1	102	108	-3	-10
22	C=C(C)Cn1c(SCC(=O)O)nnc1-c1ccccc1	103	100	3	-14
23	CCN(CC)Cc1ccc(Nc2ccnc3cc(Cl)ccc23)cc1O	100	102	6	14
24	O=C1N(c2ccc3c(c2)OCO3)C(c2ccc3c(c2)OCO3)C1(F)F (configuration not stated)	101	101	-1	-19
25	Cc1cccc(N2CC(C(=O)Nc3ccc4c(c3)OCO4)CC2=O)c1C (configuration not stated)	104	103	-5	4
26	C=CCn1c(O)c(C=Nc2cccc(C)c2)c(=O)[nH]c1=S	96	101	4	-64
27	O=C(CCN1C(=O)c2ccccc2C1=O)Oc1ccc(Cl)cc1	103	101	-2	-8
28	CCOC(=O)C1CCN(Cn2c(O)c(N=NC(=S)Nc3cccc(OC)c3)c3ccccc32)CC1	104	101	-14	-127
29	COc1cc2ncnc(NCc3cccc4c3OCO4)c2cc1OC	101	97	15	10
30	C/C(CC(=O)c1ccccc1)=N\n1cnnc1	104	99	.	2
31	O=C(Cn1nc(-c2ccccc2)ccc1=O)N1CCOCC1	103	107	23	-11
32	CC(=O)N(CCN(C)C)c1nc2cc(C)cc(C)c2s1	103	105	-1	-2
33	C=CCn1c(C)c(C=C(C#N)C#N)c2ccccc21	102	104	-9	-89
34	COc1ccc(C2=N/C(=C\c3ccc4c(c3)OCO4)C(=O)O2)cc1	102	104	-29	-10
35	O=c1ccc(=O)n(CN(c2ccccc2)c2ccccc2)[nH]1	103	106	.	-6
36	CN(C)S(=O)(=O)c1ccc(C(=O)Nc2nc3c(s2)CCc2ccccc2-3)cc1	102	106	14	-70
37	COCCn1nnnc1C(c1ccncc1)N1CCCC1 (configuration not stated)	94	114	4	-25
38	Cc1cc(C)nc(NS(=O)(=O)c2ccc(NC(=O)CC3CCCC3)cc2)n1	107	111	-5	11
39	O=C(CCc1cccs1)NC1=NCCS1	103	108	-5	-13
40	Cc1nn(CCCC(=O)NC2CCCC(C)C2C)c(=O)c2nccn12 (configuration not stated)	99	103	-4	11
41	COC(=O)C(Cc1c[nH]c2ccccc12)NS(=O)(=O)c1cccc2nonc12 (configuration not stated)	103	103	-5	-15
42	O=C(CCN1C(=O)C2C3C=CC(C3)C2C1=O)Nc1ccccc1 (configuration not stated)	105	107	-14	-7
43	O=S(=O)(c1ccccc1)c1nnn2c1nc(N1CCc3ccccc31)c1sccc12	103	100	23	-24
44	C=CCn1c(=S)sc2c(=O)n(Cc3ccc(Cl)cc3)cnc21	100	98	0	-39
45	COc1ccc(CNC(=O)NC(=O)c2ccccc2)cc1	101	103	-11	-5
46	CC/C(=N\NC(N)=O)c1cc(F)ccc1O	101	102	2	-3
47	CC(NC(=O)c1ccc(Cl)cc1)c1ccncc1 (configuration not stated)	102	103	-8	-12
48	CCn1c(=O)c(=O)n(CC)c2cc(S(=O)(=O)NC3CCCCC3)ccc21	102	106	-4	-10
49	Cc1occc1C(=O)Nc1cnn(CCCC(=O)O)c1	100	102	0	-10
50	O=C(O)c1cnc(-c2ccccc2)nc1N1CCc2[nH]ncc2C1	99	104	1	1

Next section:
entry	compound	Polio RdRp inh	Polio RdRp inh intensity	Mtb MbtI inh	MenB inh
51	CC(=O)OC(CC(=O)O)Cc1nc2ccccc2s1 (configuration not stated)	104	113	6	-10
52	Cc1ccc(-c2csc(=N)n2-c2ccccc2)cc1	100	104	-4	8
53	O=C1OC2CC3CC(C2)CC1C3	98	101	2	-4
54	CC1(C)CC(=O)C(C=NCCC(=O)O)=C(O)C1	104	96	17	-1
55	COc1ccc(NC(=O)CSc2nc(C)c(C)c(=O)[nH]2)cc1OC	100	98	-6	0
56	N#Cc1c(-c2ccc3c(c2)OCO3)cc(-c2ccccc2O)[nH]c1=O	120	119	-8	-75
57	CC(=O)NCc1ccc(C(=O)CSc2nc3ccccc3c(=O)n2-c2ccc(Cl)cc2)o1	104	97	9	16
58	S=c1[nH]nc(C2CCCCC2)n1N=Cc1ccncc1	94	101	.	-40
59	CN1C(=O)/C(=C/c2c(N3CCSCC3)nc3ccccn3c2=O)SC1=S	.	.	-4	-12
60	C[N+](C)(C)CCOP(=O)([O-])OP(=O)(O)OC[C@H]1OC(n2ccc(N)nc2=O)[C@H](O)[C@@H]1O (some centres not stated)	101	102	-9	-1
61	COc1ccc(CC(=O)Sc2nc3ccccc3o2)cc1	107	109	.	-8
62	C=CCn1cnc2scc(-c3ccc(Cl)cc3)c2c1=O	104	106	.	-13
63	COC(=O)c1ccc(NC(=O)CSC(=S)N2CCOCC2)cc1	106	111	.	1
64	CCOc1ccc2nc(Cl)c(CN(Cc3ccco3)C(=O)N(C)C)cc2c1	102	102	14	-29
65	O=C1CC(C2CCCC=C2N2CCCCC2)C(=O)N1c1ccccc1 (configuration not stated)	.	.	-6	-24
66	COC(=O)N1N=C(c2ccccc2)CC1(O)C(F)(F)F (configuration not stated)	99	99	-2	7
67	CCc1ccc(CNC(=O)c2ccc(Sc3ccc(C)cc3)c(NC(C)=O)c2)cc1	101	98	6	-47
68	Cc1ccc2c(c1)c1nc3n(c(=O)c1n2CC(=O)N1CCCC1)CCS3	101	101	91	-15
69	CCOc1cc(C2NC(=O)c3ccccc3O2)ccc1OCC(=O)OC (configuration not stated)	103	108	-7	21
70	COc1ccc(NS(=O)(=O)C(F)(F)F)cc1	99	113	-8	.
71	O=C(CCCN1C(=O)C(c2ccccc2)Oc2cccnc21)N1CCc2ccccc21 (configuration not stated)	102	104	-13	-12
72	O=C(CCn1nc(C(F)(F)F)cc1C1CC1)NCCC1=CCCCC1	102	98	-1	-9
73	Cc1ccc(Nc2nc(N)nc(COc3ccccc3C#N)n2)cc1	106	100	-76	-5
74	Cc1cc(C)c(S(=O)(=O)Nc2ccc3[nH]c(=O)[nH]c3c2)c(C)c1	103	100	0	-7
75	O=C(Nc1cccc(Cl)c1)c1ccc(CS(=O)c2ccc(Cl)cc2)o1 (configuration not stated)	102	107	32	-16
76	CC(C)(C)C(=O)CSc1nc2ccccc2c(=O)n1CC1CC1	109	101	-5	-9
77	COc1cc(/C=N/NC(=O)c2sc(N)nc2C)ccc1O	99	98	10	12
78	Cn1cccc1CNCc1ccccn1	98	101	-3	8
79	O=C(CSC(c1ccccc1)c1ccccc1)Nc1ccccc1	106	114	.	-12
80	CO/N=C1\CN(c2nc3c(cc2F)c(=O)c(C(=O)O)cn3C2CC2)CC1CN (configuration not stated)	100	103	.	-1
81	CC(C)Nc1nnc(SCC(=O)Nc2c(C#N)oc3ccccc23)s1	103	112	-5	-3
82	CCOC(=O)CSc1nc2ncccc2c(=O)n1Cc1ccccc1	98	103	-2	3
83	CC(C)(C)C(O)(CC#CCN1CCCC1)c1ccccc1 (configuration not stated)	105	104	4	-34
84	Cc1ccc(C)n1CCN1CCN(C(=O)c2cccs2)CC1	102	107	-10	.
85	CC(C)C(NC(=O)Cc1cccc2ccccc12)C(=O)N1CCN(c2ncccn2)CC1 (configuration not stated)	110	101	10	7
86	N#CC(C#N)=Cc1ccc(O)c(Cl)c1	100	99	61*	i
87	Fc1ccc(-c2cc(-c3nnco3)[nH]n2)cc1	101	102	-4	1
88	Fc1ccc(C=Nc2ccc3c(c2)OCO3)cc1	104	96	7	11
89	COC(=O)C1=CNC=C(C(=O)OC)C1c1ccc(Cl)cc1	101	103	91	-7
90	S=C1NCN(C2CCCC2)CN1	95	91	-2	8
91	CC(C)COc1ccc2[nH]c3c(c2c1)CCC3	105	112	.	-3
92	O=C(O)c1nn(CN2CCN(c3ccccc3F)CC2)c2ccccc12	107	103	-13	6
93	CCc1nc(C)cc(CN(C)C)c1O	100	103	i	-70
94	CN(CC(=O)N1CCN(c2ccccc2)CC1)S(=O)(=O)c1ccccc1	99	93	.	-20
95	Cc1cc(C(=O)OC(C)C)ccc1-c1ccc(C=C(C#N)C#N)o1	100	107	-4	-11
96	O=S(=O)(NCCCN1CCOCC1)c1cc(Br)c(Br)s1	102	99	-15	3
97	CCN(CC)S(=O)(=O)c1ccc(N(C(=O)Cn2nnc3ccccc32)C(C(=O)NC2CCCC2)c2ccco2)cc1 (configuration not stated)	101	102	-9	-1
98	COC(=O)c1cc(=O)n2c(c1C(=O)c1cccs1)SCC2	103	96	13	-18
99	CCCCCc1nn2cc(-c3cccc(OC)c3)nc2s1	100	104	-5	1
100	CCN(CC(=O)Nc1ccc2c(c1)OCCO2)C(=O)c1cc(Cl)ccc1O	103	104	-1	4

Of the compounds above, these contain a tert-butyl group.
entry	compound	Polio RdRp inh	Polio RdRp inh intensity	Mtb MbtI inh	MenB inh
76	CC(C)(C)C(=O)CSc1nc2ccccc2c(=O)n1CC1CC1	109	101	-5	-9
83	CC(C)(C)C(O)(CC#CCN1CCCC1)c1ccccc1 (configuration not stated)	105	104	4	-34

Following part
entry	compound	Polio RdRp inh	Polio RdRp inh intensity	Mtb MbtI inh	MenB inh
101	CC(C)(C)NC(=O)CSc1nnnn1C(C)(C)C	102	95	.	-11
102	CCCNC(=O)c1cc2oc3ccccc3c2n1C	103	101	26	-10
103	Cc1ccc(-n2ncc3c(=O)n(-c4ccc(F)c(Cl)c4)c(-c4ccco4)nc32)cc1	102	107	5	-3
104	CCOc1ccc(C2C(C(=O)OC)=CN(CCOC)C=C2C(=O)OC)cc1	109	101	.	-17
105	CCC(=O)Nc1nc(-c2ccc3c(c2)CCN3C(C)=O)cs1	98	117	5	-18
106	O=C(c1ccccc1)c1ccccc1C(=O)c1ccccc1	109	111	-2	-20
107	Cc1cc2occ(CC(=O)OCc3nc4ccccc4c(=O)n3CC#N)c2cc1C	107	113	0	-8
108	O=C(CSc1ccccc1Cl)c1cccs1	104	107	1	.
109	O=C(CSc1cccc[n+]1[O-])NC1CCCc2ccccc21 (configuration not stated)	100	103	2	.
110	CCN1C(=O)/C(=C2\SC(=S)N(c3cccc(Cl)c3)C2=O)c2ccccc21	100	102	-7	-2
111	Cc1ccc(Nc2nc(C)cc(C)c2C(N)=O)cc1	102	107	1	-6
112	CC1CCN(C(=O)Cn2ncc3c4ccccc4n(Cc4ccccc4)c3c2=O)CC1	98	104	3	-41
113	Cn1c(/C=C/C(=O)O)nc2ccccc21	99	99	.	2
114	CCOC(=O)c1nn(-c2ccc(F)cc2)c(=O)cc1OCC(=O)NC1CCCC1	104	103	7	-10
115	O=C(c1ccccc1)c1cncc(Br)c1	97	101	3	-3
116	CC(=O)N(Nc1ccccc1)c1ccccc1	103	100	-3	-4
117	O=C(CSc1nc2ncccc2[nH]1)NC1CCCC1	103	109	.	-5
118	CCN(CC)c1ccc(-c2nocc2C#N)cc1	76	175	21	-361
119	CCOC(=O)c1c(-c2ccccc2)oc2cc(Br)c(O)cc12	101	102	4	5
120	O=C1CCCN1CCCn1cnc2c([nH]c3ccccc32)c1=O	105	103	85	9
121	CC(=O)NCc1ccc(C(=O)COC(=O)CCc2c[nH]c3ccccc23)o1	107	102	-8	-23
122	Cc1cccc(C)c1-n1c(C2CC3CCC2O3)n[nH]c1=S (configuration not stated)	102	105	3	-14
123	O=C(COc1ncnc2ccccc12)Nc1ccc(Cl)cc1F	102	104	3	.
124	O=S(=O)(NC(c1ccccc1)c1ccccc1)c1ccccc1	101	104	.	-1
125	Cc1cccc(Oc2coc3cc(OC(=O)c4ccc(F)cc4)ccc3c2=O)c1	100	105	2	-4
